VDR inh: inhibitors of human vitamin D receptor; AID 504847; P11473; Potency, µM, inactives show max response, negative = inhibition, hits mostly inhibitors; VDR-SRC2-3 peptide fluorescence polarization, 2 h; hit rate 0.93% among 400,000; active means well fitted inhibition curve with a large enough effect; inconclusive means small, poorly fitted or top-dose-only effect, or another doubt; inactive means no such curve, though single readings can be large or run the other way; further: series mostly up to about 120 µM
Target sequence (P11473 whole entry, looked up): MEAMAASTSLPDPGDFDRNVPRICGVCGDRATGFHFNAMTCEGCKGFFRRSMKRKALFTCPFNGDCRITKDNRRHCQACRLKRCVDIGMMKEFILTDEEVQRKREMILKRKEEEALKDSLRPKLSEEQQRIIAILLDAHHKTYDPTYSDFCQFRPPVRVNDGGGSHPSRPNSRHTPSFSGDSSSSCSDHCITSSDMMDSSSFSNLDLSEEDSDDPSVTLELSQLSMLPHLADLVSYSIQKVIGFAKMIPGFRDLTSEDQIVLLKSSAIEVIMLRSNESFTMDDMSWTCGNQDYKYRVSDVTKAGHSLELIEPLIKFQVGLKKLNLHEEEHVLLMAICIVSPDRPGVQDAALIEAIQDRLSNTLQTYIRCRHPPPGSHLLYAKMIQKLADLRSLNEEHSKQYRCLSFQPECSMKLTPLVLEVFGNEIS
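Inhibition of the VDR/SRC2-3 peptide interaction is quantified by fluorescence polarization. Compounds (23 nl, pintool) incubate with the reagents for 2 hours at ambient room temperature.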
Numbers without * were called inactive; ? = inconclusive; & = joins results of further samples. On the % scale 0 is the no-effect control and ±100 the full control effect; potency means the concentration at half of the fitted maximal effect. Not all compounds are listed (hit frequency here may not be typical).

VDR inh,molecule
3.8%,O=S(=O)(Nc1ccc(-c2cn3cccnc3n2)cc1)c1ccccc1
-13.8%,CC(CCc1ccccc1)NC(=O)/C=C/c1ccc(Cl)cc1 (configuration not stated)
6.7%,COc1ccc(NS(=O)(=O)c2csc(C(=O)N3CCCC3)c2)c(OC)c1
-9.7%,CCN(CC)CCNc1nc(-c2ccc(OC(F)F)cc2)c(C)s1
12.3%,Cc1c(C(=O)N2CCCC2)oc2c1-c1nn(CC(=O)NCc3ccccc3Br)cc1CC2
-6.1%,COc1ccc2c(c1)c(=O)oc1c(C)c(OC(C)C(=O)N[C@@H](Cc3c[nH]c4ccc(O)cc34)C(=O)O)ccc12 (some centres not stated)
4.2%,CCN1C(=O)c2cccc3c(NC(=O)C(C)(C)C)ccc1c23
-7.9%,O=C(c1ccco1)N1N=C(c2ccncc2)CC1(O)C(F)(F)F (configuration not stated)
7.0%,Cc1ccc(C(=O)OCC(=O)N2CCc3ccccc32)cc1
14.0%,CCn1c(CN2CCCCC2)nc2cc(NC(=O)COc3cc(C)ccc3C(C)C)ccc21
15.4%,Cc1c(C(=O)Nc2cccc(C(F)(F)F)c2)oc2ccc(S(=O)(=O)N(C)C3CCCCC3)cc12
16.8%,CCOc1ccccc1N1CC(c2nc3ccccc3n2CCCOc2ccccc2)CC1=O (configuration not stated)
-2.0%,CCN(CC)CC(C)CNC(=O)c1cc(-c2ccc(Br)s2)nc2ccccc12 (configuration not stated)
6.0%,O=C(Cn1nnc(-c2cc(C(F)(F)F)cc(C(F)(F)F)c2)n1)NNC(=S)Nc1ccc(Cl)cc1
14.0%,O=C(c1nc2ccccn2c1CN1CCN(c2ccccc2O)CC1)N1CCCC1
4.7%,O=C(Cn1c(=O)sc2ccccc21)NCc1ccco1
4.2%,COc1ccc(N2C(N)=NC(N)=NC23CCCC3)cc1
-0.2%,O=C(c1ccccc1)n1ccc2ccccc21
0.1%,COC1=CC(=O)CC(C)C12Oc1c(Cl)c(OC)cc(OC)c1C2=O (configuration not stated)
-0.6%,CCOC(=O)N1CCc2c(sc3c2c(=O)n(CCc2ccccc2)c(=O)n3Cc2ccc(C)cc2C)C1
3.5%,CCCCCc1ccc(-c2cn(CCCOCc3ccccc3)nn2)cc1
-0.6%,CC(Oc1ccc(Cl)cc1Cl)C(=O)Nc1cccnc1 (configuration not stated)
-13.4%,CCc1c(C)nc2nc(SCc3ccccc3)[nH]n2c1=O
11.1%,CCOC(=O)/C(C#N)=C/c1cccc([N+](=O)[O-])c1
-14.8%,COc1ccc([C@@H]2C[C@H]3CN(Cc4ccccc4OC)C(=O)[C@]34CCCN24)cc1C
7.0%&17.7%,Cc1ccc(Nc2c(-c3cccnc3)nc3ccc(Br)cn23)cc1
-3.7%,OCCNCCOCCOc1ccccc1-c1ccccc1
-8.5%,NC(=O)CC[C@H](NC(=O)c1ccc(F)cc1)C(=O)N1CCN(Cc2ccc3c(c2)OCO3)CC1
10.6%,O=C(O)C(Oc1ccc(Cl)cc1)c1ccc(Cl)cc1 (configuration not stated)
0.0%,CCCCOc1ccc(N2C(=O)CC(N(O)c3ccccc3)C2=O)cc1 (configuration not stated)
11.5%,Nc1nc(N2CCN(c3ccccc3)CC2)n[nH]1
-1.9%,CC(=O)c1cccc(CN2CCN(C3CCCC3)C(CCO)C2)c1 (configuration not stated)
-29.8%,CCC(C)NC(=O)C1CCC(CNS(=O)(=O)c2ccc3c(c2)N(C(C)=O)CCO3)CC1 (configuration not stated)
22.0%,Cc1ccc(-c2nc(S(=O)(=O)c3ccc(F)cc3)c(N3CCN(c4ccccc4)CC3)o2)cc1
2.0%,CC(C)(C)c1cc(=O)[nH]c(SCc2ccccc2)n1
3.4%,FC(F)Oc1ccc(C2N=C(c3ccccc3)NO2)cc1 (configuration not stated)
15.5%,COC(=O)c1ccc(NS(=O)(=O)c2cc3c4c(c2)CCC(=O)N4CCC3)cc1
6.1%,O=C(NCCCn1ccnc1)c1cc(S(=O)(=O)N2CCOCC2)ccc1F
-13.4%,CCOc1cc(C(=O)N2CCC(CC3CC(c4cccc(Br)c4)=NO3)(C(=O)NCC3CCCCC3)CC2)cc(OCC)c1OCC (configuration not stated)
-16.7%,COc1cccc(N2CCN(Cc3ccco3)CC2)c1
-23.5%,COc1ccc(-n2ncc3c(=O)n(CC(C)=O)cnc32)cc1
-23.9%,CCOC(=O)c1cc(-c2ccc(OC)cc2)n[nH]1
-28.1%,CC(C)[C@H]1COCCS(=O)(=O)N1Cc1ccccc1F
2.6%&-8.1%,CCOc1ccc(N(CC(=O)Nc2cc(OC)cc(OC)c2)S(=O)(=O)c2c(C)[nH]c(=O)[nH]c2=O)cc1
4.1%,COc1ccc(OC)c(NC(=O)CSC2=Nc3ccccc3C3=NC(CC(=O)NCc4ccc5c(c4)OCO5)C(=O)N23)c1 (configuration not stated)
0.9%,COC(=O)C1=C(O)/C(=C\c2ccc(CNS(=O)(=O)c3ccc(Cl)cc3)o2)N=C1C
-1.3%,COC(=O)c1ccc(OCc2nn[nH]n2)cc1
9.1%,COc1ccc(NC(=O)CSc2c(C(C)C)cnc3c2c(=O)n(C)c(=O)n3C)c(OC)c1
13.1%,CSc1ncc(CN2CCN(CCC(C)C)C(CCO)C2)cn1 (configuration not stated)
-12.0%,Cc1ccc(-n2c(SCC(=O)N3CCCCC3)nc(O)c(Cc3ccccc3)c2=O)cc1
12.2%,CCOc1ncccc1C(=O)N(CC)CC(=O)NCc1ccc(F)cc1
-6.3%,CC(C)Cc1nn2c(=O)cc(CSCC(=O)Nc3ccccc3F)nc2s1
-5.6%,C#CCSc1nnc(-c2ccc(O)cc2)o1
-7.5%,CCCC(=O)Nc1cc(-c2cn3cccnc3n2)ccc1OC
-0.6%,CCOC(=O)C1CCN(C(=O)c2oc3ccc4c(c3c2C)C(O)CC2(CCCCC2)O4)CC1 (configuration not stated)
1.0%,C=CCc1c(OC(C)=O)c2ccccc2n(C)c1=O
-29.9%,COc1ccc(NC(=O)CSc2nc3c(sc4ccccc43)c(=O)n2CCCN2CCCC2)cc1
1.2%,CCNC(=S)N1CCN(CCN=CC2=C(O)CC(c3cccs3)CC2=O)CC1 (configuration not stated)
-8.3%,Cc1sc(NC(=O)c2ccco2)c(CN2CCN(Cc3ccccc3)CC2)c1C
-27.3%,COc1ccc(CC2(CO)CCN(C(=O)NCc3ccccc3)CC2)cc1

4 entries from above, arranged by the value under VDR inh, falling:
VDR inh,molecule
13.1%,CSc1ncc(CN2CCN(CCC(C)C)C(CCO)C2)cn1 (configuration not stated)
12.2%,CCOc1ncccc1C(=O)N(CC)CC(=O)NCc1ccc(F)cc1
-7.5%,CCCC(=O)Nc1cc(-c2cn3cccnc3n2)ccc1OC
-29.9%,COc1ccc(NC(=O)CSc2nc3c(sc4ccccc43)c(=O)n2CCCN2CCCC2)cc1

(continued)
VDR inh,molecule
3.9%,COc1ccc(Nc2nc(Cl)nc(Nc3ccc(OC)cc3OC)n2)c(OC)c1
-11.5%,Cc1ccccc1OCC(=O)N(Cc1nnc(-c2ccc(Cl)cc2)o1)C(C)C
7.3%,COc1cc(-c2ncc3ccccn23)cc(OC)c1OC
-16.1%,CC12CN(C(=O)c3ccccc3Br)CC(C)(CN(C(=O)c3ccccc3Br)C1)C2=O
-6.1%,O=S(=O)(c1ccc(F)cc1)N1CCN(CC(O)COCC2CCCO2)CC1 (configuration not stated)
-3.8%,CCOC(=O)C(Sc1ncn[nH]1)c1ccccc1 (configuration not stated)
0.7%,CCCCOc1ccc(CNC(=O)CCCN2C(=O)CSc3c2c(C)nn3-c2ccccc2)cc1
-8.0%,CC(C)(C)c1cc(NC(=O)c2ccc(OC3CCCC3)cc2)no1
-5.6%,CCC(C)/C(C)=N/NC(=O)CSc1nc2ccccc2[nH]1 (configuration not stated)
2.4%,Cc1cc(C(=O)OCC(=O)NC2CCCC(C)C2C)c(C)o1 (configuration not stated)
12.3%,COC(=O)c1ccc(NC(=O)c2ccccc2-c2ccccc2C(=O)O)cc1
-8.6%,Cc1onc(-c2ccccc2Cl)c1C(=O)OCC(=O)Nc1cccc(S(=O)(=O)N(C)C)c1
-12.4%,CCOc1ccc(CN(C(=O)c2cc3ccccc3oc2=O)C2CCS(=O)(=O)C2)cc1 (configuration not stated)
-11.2%,CC(C)Cc1nnc(NC(=O)c2ccc3c(=O)n4c(nc3c2)CCC4)s1
-18.1%,O=C(CSc1nc(O)cc(=O)n1-c1ccc(Cl)c(Cl)c1)Nc1ccc(Cl)cc1Cl

An excerpt of these results, with each value named:
Molecule: O=S(=O)(c1ccc(F)cc1)N1CCN(CC(O)COCC2CCCO2)CC1 (configuration not stated)
- VDR inh: -6.1%

Molecule: CCOC(=O)C(Sc1ncn[nH]1)c1ccccc1 (configuration not stated)
- VDR inh: -3.8%

Next part
VDR inh,molecule
2.4%,Cc1cc([N+](=O)[O-])nn1Cn1nc([N+](=O)[O-])cc1C
-1.8%,CCc1c(C(=O)NCCc2ccc(OC)c(OC)c2)[nH]c(C)c1C(C)=O
-8.4%,Cc1ccc(C(=O)NCCCNC(=O)c2ccco2)cc1C
2.7%,CCN1C(=O)CC(N2CCN(c3ccc(C(=O)c4ccccc4)cc3)CC2)C1=O (configuration not stated)
-15.6%,c1csc(C(c2nnnn2C2CCCC2)N2CCCC3(CCCCC3)C2)c1 (configuration not stated)
?,C=CCNC(=O)/C(C#N)=C/c1c(C)nn(-c2ccccc2)c1Cl
2.3%,CCn1cc(C(=O)NCCC(=O)NCCCO)c(=O)c2cc3c(cc21)OCO3
-15.9%,CCCNC(=O)C1CCN(c2cc(-c3ccccc3)nc3ncnn23)CC1
3.1%,O=[N+]([O-])c1ccccc1C(O)Cc1ccccn1 (configuration not stated)
14.0%,O=c1[nH]c(=O)n(Cc2ccccc2)c2c1CCC2
-6.3%,CC1CCCN(C(=O)c2ccc(NS(=O)(=O)c3ccc4[nH]c(=O)[nH]c4c3)cc2)C1 (configuration not stated)
18.9%,O=C(Cc1cccs1)Nc1nnc(C2CC2)s1
7.3%,Cc1ccc(-n2cc(-c3ccccc3)[nH]c2=O)cc1F
0.8%,Cc1ccc(C)c(NS(=O)(=O)c2ccc3c(c2)CCCN3C(=O)C2CCC2)c1
10.1%,CC(OC(=O)c1ccc(F)c(S(=O)(=O)N2CCOCC2)c1)C(=O)NC1CCCC1 (configuration not stated)

Rewritten with each value named: entries from further up.
O=[N+]([O-])c1ccccc1C(O)Cc1ccccn1 (configuration not stated)
  VDR inh = 3.1%
CCc1c(C(=O)NCCc2ccc(OC)c(OC)c2)[nH]c(C)c1C(C)=O
  VDR inh = -1.8%

Further records.
VDR inh,molecule
16.2%,CC12CN3CC(C)(CN(C1)C3c1ccccc1Cl)C2O (configuration not stated)
-5.5%,O=C(NCc1ccccc1CN1CCCC1)c1cccc(S(=O)(=O)N2CCCC2)c1
-1.0%,COc1ccc(-c2cn3cccnc3n2)cc1NC(=O)c1cccs1
-5.8%,Cc1onc(-c2ccccc2Cl)c1C(=O)N/N=C(\N)COc1ccc(Cl)cc1
23.3%,CCc1ccc2oc(C(=O)NCc3ccncc3)c(C)c2c1
-11.1%,CC(C)(C)S(=O)(=O)N1Cc2cc(CO)cc(CCO)c2[C@@H]1CCO
6.3%,Cc1ccnc(Nc2nc3ccccc3s2)n1
-5.3%,CC1(C)Oc2ccccc2OC1(O)c1ccc2ccccc2n1 (configuration not stated)
-14.9%,CCn1cc(/C=C/C(=O)NCc2c(C)nn(C)c2C)cn1
-8.2%,O=C(NC(=S)Nc1cccc2ncccc12)c1cccs1
-4.1%,Cc1cccc(N2CCN(C(=O)C3CCC(CNS(=O)(=O)c4cccs4)CC3)CC2)c1C (configuration not stated)
-12.4%,CNC(=S)N/N=C/c1ccc(C(C)C)cc1
13.2%,CC(C)OCCCn1c(SCC(N)=O)nc2c(sc3ccccc32)c1=O
-9.2%,Cc1ccc(N(CC(=O)NC2CCCC2)C(=O)CNC(=O)c2cccs2)c(C)c1
7.1%,CC(=O)NS(=O)(=O)c1ccc(NC(=O)CCC(=O)Oc2ccc(C)cc2)cc1
-13.5%,OCc1cnc(SCc2ccc(F)cc2)n1Cc1ccc(F)cc1
1.7%,N#Cc1ccc(NC(=O)COCc2cc(-c3ccco3)on2)cc1
-7.6%,O=C(CC1C(=O)N(c2ccccc2)C(=O)N1Cc1ccco1)Nc1ccccc1 (configuration not stated)
3.7%,CC(C)(C)c1ccc(S(=O)(=O)N2CCC(c3nc4ccc(Cl)cc4[nH]3)CC2)cc1
15.8µM*,O=C1C=CC(=O)N1c1ccc(OC(F)F)cc1
-8.6%,CCCCc1cc(=O)oc2cc(C)cc(OC(C)C(=O)NC(Cc3c[nH]c4ccc(O)cc34)C(=O)O)c12 (configuration not stated)
-14.5%,Cc1[nH]c2ccccc2c1/C=C/C(=O)c1ccccc1
10.2%,CCCn1c(=S)[nH]c2cc(C(=O)N3CCN(c4ccccc4OC)CC3)ccc2c1=O
7.0%,Cn1c(=O)c2[nH]c(NCC3CCCO3)nc2n(-c2ccccc2)c1=O (configuration not stated)
-27.9%,O=C(Nc1nc2c(Br)cc(Br)cc2c(=O)s1)C1CCC1
-7.3%,Cc1c(OCC(=O)NCCN2CCOCC2)ccc2c3c(c(=O)oc12)CCC3
12.1%,Cc1cc(OCc2n[nH]c(=S)n2-c2ccccc2)ccc1Cl
?,COC(=O)C1=C(C(=O)OC)C(c2cc(Br)ccc2O)c2sc(=O)[nH]c2S1 (configuration not stated)
13.0%,COc1ccc(OCCC(=O)N2CCN(C)CC2)cc1
-6.5%,O=c1oc2cc(OCc3nn[nH]n3)ccc2c2c1CCCC2
1.3%,CC1(C)N=C(c2cccc(F)c2)C(=O)N1
4.0%,CCCCN(CCCC)c1nn[nH]n1

VDR inh, entries above that show a hit
VDR inh,molecule
15.8µM*,O=C1C=CC(=O)N1c1ccc(OC(F)F)cc1

Screening results deposited in PubChem by National Center for Advancing Translational Sciences (NCATS).
